# HTT promoter inh – Primary qHTS for Identification of Small Molecule Inhibitors of Huntingtin Promoter Activity | HEK293 HTT promoter firefly luciferase reporter (activity 0% = vehicle and -100% = no light), 24 h | Potency, µM (doses to about 57.5 µM), for the others: at the highest dose activity change, negative = inhibition, hits mostly inhibitors | 48,000 compounds, 0.93% hits | AID 1508623, 2021; active = well fitted inhibition curve with a large enough effect; inconclusive = small, poorly fitted or top-dose-only effect; inactive = no such curve, though single readings can be large or run the other way; note: nearly all actives have a fitted effect of over 50% in size
#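 Firefly luciferase signal from promoter-reporter HEK293 cells was scaled between vehicle (0%) and zero RLU (-100%). Compounds were tested at final concentrations of up to 57.5 uM over 24 h at 37 degrees C. PTC124 at 50 uM final served as control inhibitor.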
# PMP22 txn prim – Cell-based coincidence reporter assay to measure PMP22 gene transcription in S16 Pmp22-F2sN cells - Primary screen; S16 Pmp22-F2sN Schwann cells (luciferase reporters placed in the Pmp22 gene), FLuc/NLuc coincidence luminescence, 24 h; Potency, µM (doses to about 57.5 µM), without a hit: at the top dose activity change, negative = inhibition, most hits filed as inhibitors; 43,000 compounds, 2% hits; active = clear falling dose curves in both reporters; inconclusive = both reporters move, but less clearly or upward; inactive = either reporter flat; the % is the NLuc reporter signal; note: % is set by controls: 0 for no effect and ±100 for the full control effect; some results filed as inactive show a strong effect at the top dose
#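 S16 Schwann cells carrying FLuc/NLuc coincidence reporter in the Pmp22 3' UTR treated with compound 24 h at 37C; FLuc then NLuc luminescence read sequentially by dual-luciferase reagents.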
# An asterisk follows results filed as active; ? = inconclusive; · = no result given; [ ] = remark or other dose. Potency is the fitted concentration of half-maximal effect.
SMILES,HTT promoter inh,PMP22 txn prim
COc1ccc(OCc2ccc(-c3nc(C#N)c(NC(C)c4ccccc4)o3)o2)cc1 (stereo unspecified),-22%,6%
CC(C)C12CN3CC(C(C)C)(CN(C1)C3c1ccc(Cl)cc1)C2=O (stereo unspecified),-7%,-11%
Cn1cc(C(=O)NCc2ccccc2)c(=O)c2cc(S(=O)(=O)N3CCOCC3)ccc21,-19%[11.5 µM],7%
COc1cc(NC(=O)C2CCN(S(=O)(=O)c3ccc4c(c3)CCCC(=O)N4)CC2)cc(OC)c1,-16%,0%
Cc1ccc(N2C(=O)CSC23C(=O)Nc2ccccc23)cc1F (stereo unspecified),-21%,-21%
CN1C(C(=O)Nc2ccc(F)cc2F)=CC(c2ccc3c(c2)OCO3)=NS1(=O)=O,-12%,-6%
COC(=O)CN1C(=O)C(O)(c2c(C)[nH]c3ccccc23)c2ccccc21 (stereo unspecified),-14%,-17%
CC(C)(C)NC(=O)c1oc2ccccc2c1NC(=O)c1ccc(F)cc1,-18%,39%
COc1ccccc1N(CC(=O)Nc1ccccc1C(F)(F)F)S(=O)(=O)c1ccc(C)cc1,?,?
CCOc1ccc(NC(=O)Cn2cc(C(=O)c3ccc(C)cc3)c(=O)c3cc4c(cc32)OCCO4)cc1,-4%,-29%
CCCSc1ncc(Cl)c(C(=O)Nc2nc3ccc(C)cc3s2)n1,-17%,-22%
Cn1cc(S(=O)(=O)N2CCCCCC2)cc1C(=O)NCc1ccc(Cl)cc1,?,?
CCOC(=O)c1cc(C)n(CC2CCC(C(=O)Nc3cccc(Cl)c3)CC2)c1C (stereo unspecified),?,-60%
CCOC(=O)c1noc2ncn(CC(=O)Nc3cc(Cl)ccc3OC)c(=O)c12,-4%,-8%
COc1ccc(NC(=O)c2oc3ccccc3c2NC(=O)c2cc(=O)c3ccccc3o2)cc1,1%,?
COc1ccc(-c2cc3ccc(O)c(CN4CCC(C)CC4)c3oc2=O)cc1OC,-5%,-98%
O=C(CN1CCCN(Cc2ccccc2Cl)S1(=O)=O)Nc1ccc2c(c1)OCCO2,-1%,5%
COc1ccc(Nc2nc3c(S(=O)(=O)c4ccccc4)nnn3c3ccc(Cl)cc23)cc1,?,8.9µM*
COc1ccccc1CNC(=O)c1ccc2c(c1)nc(C)n2-c1cccc(C)c1,-17%,-12%
CCN(CC)c1ccc(NC(=O)c2cnn(-c3ccccc3)c2-n2cccc2)c(C)c1,?,?
Cc1c(F)c(N2CCNC(C)C2)cc2c1c(=O)c(C(=O)O)cn2C1CC1 (stereo unspecified),4%,·
O=C(CCCCn1c(=O)c2ccccc2n(Cc2ccccc2Cl)c1=O)NCCc1ccccc1,-9%,-28%
CCCc1nc(SC)ncc1C(=O)N1CCN(c2ccc(Cl)cc2)CC1,?,?
CCOc1ccc(-n2cc(-c3ccccc3)c3c(NCCc4ccccc4)ncnc32)cc1,-30%,-36%
Cc1cc(C)c(NC(=O)CSc2nc3nc(C)cc(C)n3n2)c(C)c1,33%[activator],5%
Cc1cccc(N(CC(=O)NCCc2ccccc2)S(=O)(=O)c2ccccc2)c1C,?,?
CCCNC(=O)Cn1nc(-c2ccc(F)cc2)c2cnc3ccc(F)cc3c21,-2%,?
O=C(Cn1c(=O)n(Cc2ccccc2)c(=O)c2sc3ccccc3c21)Nc1ccccc1,-10%,?
COc1ccccc1NC(=O)C1=C(C)Nc2nc(SCc3ccccc3Cl)nn2C1c1cccnc1 (stereo unspecified),-3%,?
CCOc1cc(C(=O)N2CCn3c4c(c5cc(C)ccc53)CCCC42)cc(OCC)c1OCC (stereo unspecified),0%,-20%
CCN(CC)CCCNC(=O)c1ccc2c(c1)NC(=O)C(CS(=O)(=O)Cc1ccc(F)cc1Cl)N2 (stereo unspecified),3%,?
CC(C)CCNC(=O)CSc1nc2ccccc2nc1Cc1ccccc1,2%,-10%
CCOc1ccc(CN(C(=O)c2cc(=O)c3cc(C)cc(C)c3o2)C2CCS(=O)(=O)C2)cc1 (stereo unspecified),4%,?
Cc1ccc(NC(=O)Nc2nnc(N3CCCCC3)s2)c(C)c1,0%,4%
Cc1coc2c1c(C)cc1oc(=O)cc(C)c12,0%,6%
CN(Cc1ccccc1)C(=O)CCS(=O)(=O)c1ccc2c(c1)oc(=O)n2C,-8%,-20%
CCCc1nnc(NC(=O)CSc2nnc3c4ccccc4n(CC)c3n2)s1,-3%,-12%
CCc1ccc(NCc2cc3ccc(OC)cc3n(CC(=O)Nc3cccc(Cl)c3C)c2=O)cc1,-11%,?
Cc1ccc(C)c(N2CCN(C(=O)Cn3cnc4sc(C)c(S(=O)(=O)N5CCN(c6ncccn6)CC5)c4c3=O)CC2)c1,-18%,?
COc1ccc2c(c1)CC(C(=O)Nc1cc(Cl)ccc1C)CO2 (stereo unspecified),-24%,?
C=Cc1ccc(Cn2c(C(=O)O)c(CNCCc3ccco3)c3ccc(C)cc32)cc1,-25%,5%
Cc1c(-c2ccc(Br)cc2)c(=O)oc2ccc(OC(=O)N3CCOCC3)cc12,?,?
COc1ccc(-c2c(C)nn3c4c(cnc23)C(=O)CC(c2ccccc2)C4)cc1 (stereo unspecified),-9%,-6%
Cc1cc(C)cc(-n2c(SCC(=O)NCc3ccco3)nc3c([nH]c4ccccc43)c2=O)c1,-12%,?
O=C(NC1CCCC1)c1cnn(-c2ccc(F)cc2F)c1C1CCNCC1,-8%,-14%
Cc1ccc(S(=O)(=O)c2nnn3c2nc(NC(C)c2ccccc2)c2sccc23)cc1 (stereo unspecified),35%[activator],-27%
CC(=O)Nc1nnc(S(N)(=O)=O)s1,0%,·
COC(=O)c1cc(NC(=O)c2cc3c(-c4ccccc4F)nn(C)c3s2)cc(C(=O)OC)c1,?,-22%
C[C@H]1C[C@@H]2[C@@H]([C@@H](O)C[C@@]3(C)[C@H]2CC[C@]3(O)C(=O)CO)[C@@]2(C)C=CC(=O)C=C12,-8%,·
CCn1cc(C(=O)N2CCN(c3ccc(C)cc3)C(C)C2)c(=O)c2cc(S(=O)(=O)N3CCCC3)ccc21 (stereo unspecified),56%[activator][11.5 µM],-1%
Cc1nc2ccc(S(=O)(=O)N(C)CC(=O)Nc3cccc(C(F)(F)F)c3)cc2s1,?,-20%
Cc1ccc(-c2cn3nc(N4CCCC(C(=O)Nc5ccc(F)cc5)C4)sc3n2)cc1 (stereo unspecified),?,-14%
Cc1oc(-c2ccccc2F)nc1CS(=O)(=O)CC(=O)N1CCN(c2ccccc2)CC1,-21%,-3%
Cc1ccc(-n2ncc3c(N(CCO)Cc4ccccc4)ncnc32)cc1,9%,-5%
CCOc1ccc(CC(=O)Nc2c(C(=O)c3ccccc3)oc3ccc(Cl)cc23)cc1OCC,2%,-12%
Cc1ccc(NC(=O)C2CCCN(c3nnc(C)c4c(C)n(-c5ccccc5)nc34)C2)cc1Cl (stereo unspecified),-19%,?
CCOC(=O)c1cc(-c2ccccc2)n(CCCC(=O)Nc2cccc(C)c2)c1C,?,?
CCCc1nc2nc(C)c(NS(=O)(=O)c3ccc(F)cc3)c(=O)n2[nH]1,-15%,21%
CCOC(=O)c1cc2c(=O)n3ccccc3nc2n(CC(C)C)c1=NC(=O)C(C)Oc1ccccc1 (stereo unspecified),2%,?
CCOC(=O)c1cc(S(=O)(=O)N2CCN(c3ccccc3OC)CC2)[nH]n1,-11%,-7%

# Brought forward from above: 4 entries; new compounds follow.
SMILES,HTT promoter inh,PMP22 txn prim
CCOC(=O)c1cc(-c2ccccc2)n(CCCC(=O)Nc2cccc(C)c2)c1C,?,?
CCCc1nc2nc(C)c(NS(=O)(=O)c3ccc(F)cc3)c(=O)n2[nH]1,-15%,21%
CCOC(=O)c1cc2c(=O)n3ccccc3nc2n(CC(C)C)c1=NC(=O)C(C)Oc1ccccc1 (stereo unspecified),2%,?
CCOC(=O)c1cc(S(=O)(=O)N2CCN(c3ccccc3OC)CC2)[nH]n1,-11%,-7%
CCOC(=O)c1c(N)n(-c2ccc(C)c(C)c2)c2nc3ccccc3nc12,1%,-26%
N#C/C(=C\c1ccc(OCc2ccc(Cl)cc2Cl)cc1)c1nc2ccccc2[nH]1,-24%,?
CCN(c1ccc(Cl)cc1)S(=O)(=O)c1nnc(NC(=O)c2ccco2)s1,?,-16%
CCOc1ccccc1NC(=O)Cn1nnc2sc3c(c2c1=O)CCC(C(C)(C)C)C3 (stereo unspecified),5%,-3%
COc1ccccc1NC(=O)C(Cc1ccccc1)NS(=O)(=O)c1cccc2nsnc12 (stereo unspecified),-36%,-18%
CCN(c1ccc(Cl)cc1)S(=O)(=O)c1nnc(NC(=O)C2CCCCC2)s1,-25%,?
CCOc1ccc(NC(=O)CN2C(=O)CCSc3ccc(S(=O)(=O)N4CCCC4)cc32)cc1,-17%,-8%
CC1CCn2c(nc3cc(C(=O)NCc4ccccc4)ccc32)C1 (stereo unspecified),38%[activator],20%
Cc1nc(-c2ccc(S(=O)(=O)N3CCN(c4cccc(Cl)c4)CC3)cc2)co1,-24%,-27%
COc1cccc(CNCCSc2nnnn2C)c1OCc1ccccc1F,-11%,?
COc1c(C)c2c(c(O)c1CC=C(C)CCC(=O)OCCN1CCOCC1)C(=O)OC2,-12%,·
CCCCN(CCCC)S(=O)(=O)c1ccc(C(=O)Nc2sc3c(c2C(N)=O)CCN(CC)C3)cc1,-27%,?
COc1ccccc1-c1noc(-c2ccc(NCC3CCCO3)c([N+](=O)[O-])c2)n1 (stereo unspecified),40%[activator],-63%
COc1cc2[nH]c(=O)n(Cc3ccc(C(=O)N4CCN(c5cc(Cl)ccc5C)CC4)cc3)c(=O)c2cc1OC,-8%,-7%
CCOc1ccc(CNC(=O)CC(C)n2nc(C)cc2C)cc1OC (stereo unspecified),-6%,-3%
Cc1ccc2c(c1)N(C(=O)N1CCC(C(=O)NCc3cccc(Br)c3)CC1)CCO2,?,?
COc1cccc(CSc2nc3n(n2)C(c2ccc(C(=O)O)cc2)C(C(=O)Nc2ccccc2)=C(C)N3)c1 (stereo unspecified),13%,-1%
Cc1ccc(S(=O)(=O)N2CCC(C(=O)Nc3cc(C)ccc3C)CC2)cc1,?,-2%
COc1ccccc1-c1nnc(C2CCN(C(=O)c3cccc(Cl)c3)CC2)o1,-18%,-11%
CC1=C(C(=O)NCc2ccc(Cl)cc2)C2(CCC(C)CC2)OC1=O (stereo unspecified),?,-16%
Cc1cccc(C)c1Nc1c(-c2ccccn2)nc2c(C)cccn12,-37%,?
COc1cc2c(cc1OC)C(COc1cc(C)cc(C)c1)N(C(=O)COc1ccccc1)CC2 (stereo unspecified),?,?
COc1cccc(CNC(=O)c2cc(Sc3cccc(Cl)c3)nc3ccccc23)c1,?,-4%
Cc1nnc(SCC2=C(C(=O)O)N3C(=O)[C@@H](NC(=O)Cn4cnnn4)[C@H]3SC2)s1,13%,·
Cc1ncc(CO)c2c1Oc1nc(-c3ccccc3F)nc(SCC(=O)N3CCCCC3)c1C2,-7%,?
CN(C)c1ccc(C(=O)Nc2c(C(=O)NC(C)(C)C)oc3ccccc23)cc1,-16%,-11%
CCc1nn(CC(=O)N2CCN(c3ccc(Cl)cc3)CC2)c(=O)c2cc3occc3n12,-8%,?
CC(=O)OCc1cnc(C)c2oc(=O)c(C(=O)Nc3cc(F)ccc3C)cc12,-7%,-18%
COc1cc(C2c3c(oc4ccc(C)cc4c3=O)C(=O)N2Cc2ccc(F)cc2)ccc1O (stereo unspecified),-8%,-3%
COc1ccccc1NC(=O)C1=C(C)Nc2ncnn2C1c1cccn1C (stereo unspecified),?,1%

# Whole records as entered above. Order of screens: HTT promoter inh	PMP22 txn prim
# COc1ccccc1CNC(=O)c1ccc2c(c1)nc(C)n2-c1cccc(C)c1 is entered as -17%	-12%
# CN1C(C(=O)Nc2ccc(F)cc2F)=CC(c2ccc3c(c2)OCO3)=NS1(=O)=O is entered as -12%	-6%
# CCOc1ccc(CN(C(=O)c2cc(=O)c3cc(C)cc(C)c3o2)C2CCS(=O)(=O)C2)cc1 (stereo unspecified) is entered as 4%	?
# Cn1cc(C(=O)NCc2ccccc2)c(=O)c2cc(S(=O)(=O)N3CCOCC3)ccc21 is entered as -19%[11.5 µM]	7%
# Cc1c(-c2ccc(Br)cc2)c(=O)oc2ccc(OC(=O)N3CCOCC3)cc12 is entered as ?	?

# Going on with the list:
SMILES,HTT promoter inh,PMP22 txn prim
Cc1cn(C)c(CC(=O)N2CCN(c3ccc(F)cc3)CC2)c1C(=O)O,-20%,30%
COc1cc(NC(=O)c2nnn(Cc3ccc(F)cc3)c2N)cc(OC)c1,?,?
COc1cccc(CNC(=O)Cn2cccc2C(=O)c2ccccc2)c1,11%,22%
COc1ccc(OC)c(C(O)CNC(=O)CN)c1 (stereo unspecified),13%,·
CC(=O)Nc1ccc2nc(-c3cc(C)ccc3C)[nH]c2c1,16%,-27%
Cc1cccc(-c2nc(C)c(CCNC(=O)C(=O)Nc3cccc(Cl)c3C)s2)c1,13%,-10%
COc1ccc(-c2nc(C)c(CCNC(=O)C(=O)Nc3cccc(F)c3)s2)cc1OC,6%,?
CCOc1ccccc1NC(=O)CSc1ncc(S(=O)(=O)c2ccc(C(C)(C)C)cc2)c(=O)[nH]1,-13%,2%

# Compound activity (PubChem)
